Screening data: PubChem, ICCB-Longwood Screening Facility, Harvard Medical School
MgrA DNA FP: modulators of Staphylococcus aureus MgrA DNA binding. fluorescence polarization. inhibition, %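 (about 10 µg/mL by stock and volumes)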. 0.13% of 84,000 active. AID 602314;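 active = above 50% in either of two replicates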;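 note: 0% = protein plus DNA without compound and 100% = DNA alone without protein; higher means less MgrA bound to DNA so lower polarization; one replicate is shown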
S aureus helic: blocks Staphylococcus aureus DNA helicase; 0.05% of 120,000 active; purified S. aureus helicase, fluorescence unwinding assay; about half of the hits fall short of the stated cut; AID 485395; inhibition, %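 (tested at about 80 µM)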;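 active = both duplicates at 50% or more, or one of them with a favoured structure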;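 note: 0% = mean of negative control wells and 100% = mean of positive control wells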
* = called active by the depositor; / = not tested or not shown. These rows are one share of the data; rates above refer to the full screens.

SMILES	MgrA DNA FP	S aureus helic
CC(=O)Nc1ccc(-c2nc(-c3ccccc3)c3cc(NC(C)=O)ccc3n2)cc1	-0.8	/
CCCCn1nnc(NC(=O)CC23CC4CC(CC(C4)C2)C3)n1	-2.5	15
Clc1ccc(CSc2nnc([C@@H]3CCCN3)o2)cc1	1.1	-14
O=C(Oc1ccc(-c2ccccc2)cc1)c1cccs1	0.9	2
N#Cc1cc2c(nc1SCc1ccc(Cl)cc1)CCCC2=O	/	23
N#Cc1c(F)cccc1N1CCOCC1	0.8	/
COc1cccc(CNC(=O)C23CC4CC(CC(O)(C4)C2)C3)c1	/	-5
CCN(Cc1ccccc1)S(=O)(=O)c1nc2nc(C)c(C)c(C)n2n1	-2.0	18
CCOC(=O)c1c(C)[nH]c(NC(=O)Nc2ccccc2Br)c1C	/	-13
CCN(C1CCCCC1)S(=O)(=O)c1cc(F)ccc1OC	1.8	-18
CCOC(=O)N1CCN(C(=O)c2cc3c(=O)n(C)c4ccccc4c3n2C)CC1	-0.1	-9
CC(c1ccccc1)N1CC(O)=C(c2nc3ccccc3[nH]2)C1=N (stereo not drawn)	2.7	8
COc1ccc(-c2cc(=O)c3cc(OC(=O)c4ccc(OC)c(OC)c4)ccc3o2)cc1	1.9	-14
CCn1c(C)nc2cc(S(=O)(=O)N3CCOCC3)ccc21	3.1	7
O=C(CCn1c(=O)[nH]c2ccccc2c1=O)N1CCCCC1	-0.5	5
CCCn1nc(C(=O)N2CCN(CC)CC2)c2ccccc2c1=O	/	-7
COc1ccccc1-c1cc(C(F)(F)F)nc(S(=O)(=O)CCCC(=O)N2CCCCC2C)n1 (stereo not drawn)	1.4	10
CC(C)CSc1nsc2nc(=O)c(C=C3C=CC(=O)C=C3)c(N)n12	/	30
Cn1c(NNC(=O)C(C)(C)Oc2ccc(Cl)cc2)cc(=O)n(C)c1=O	/	21
CCN(c1ncnc2c1oc1ccccc12)C1CCCCC1	/	-5
COc1cc(C(=O)N2c3ccccc3C(Nc3ccccc3)CC2C)cc(OC)c1OC (stereo not drawn)	-1.5	/
O=C(Nc1ccc(-c2nnc3n2CCCCC3)cc1)c1ccccc1	/	13
CC1CCN(CC(=O)Nc2ccccc2C(F)(F)F)CC1	7.2	9
CCOC(=O)CCc1nc(-c2ccc(Cl)cc2)no1	-3.3	/
COc1ccccc1N1C(=O)C2C(C1=O)C1(C)C=CC2(C)O1 (stereo not drawn)	-6.4	/

The final 5 entries of the section before come first, to join the parts:
SMILES	MgrA DNA FP	S aureus helic
COc1cc(C(=O)N2c3ccccc3C(Nc3ccccc3)CC2C)cc(OC)c1OC (stereo not drawn)	-1.5	/
O=C(Nc1ccc(-c2nnc3n2CCCCC3)cc1)c1ccccc1	/	13
CC1CCN(CC(=O)Nc2ccccc2C(F)(F)F)CC1	7.2	9
CCOC(=O)CCc1nc(-c2ccc(Cl)cc2)no1	-3.3	/
COc1ccccc1N1C(=O)C2C(C1=O)C1(C)C=CC2(C)O1 (stereo not drawn)	-6.4	/
Oc1cc(O)c2c(c1)OC(c1ccc(O)c(O)c1)C(O)C2 (stereo not drawn)	/	-9
CCN1C(=O)/C(=C/c2c(NC(C)C)nc3ccccn3c2=O)SC1=S	/	-60
CCOC(=O)c1ccc(S(=O)(=O)Nn2cc(-c3ccccc3)[nH]c2=S)cc1	/	-9
O=S(=O)(c1ccc(-c2cc(C(F)(F)F)on2)s1)N1CCc2c([nH]c3ccc(F)cc23)C1	-0.7	/
COc1ccc(SCc2csc(NC(C)=O)n2)cc1	/	-1
NC(=O)N(CCC(=O)O)c1ccccc1	1.2	5
CNC(=O)c1ccccc1Nc1ccc(SC(F)F)cc1	1.8	-6
N#CC1=C2SCN(c3ccccc3)CN2C(=O)CC1c1ccccc1 (stereo not drawn)	/	-2
CCc1cccc(CC)c1NC(=O)Cn1c(C(=O)OC(C)C)cc2c1ccn2C	-0.5	10
Cc1ccc2nc(CC(=O)O)[nH]c2c1	1.5	-10
COc1ccc(-c2noc(CNC(=O)Nc3cccc(C)c3)n2)cc1	-1.8	9
CCCCOc1ccc(NC(=O)CS(=O)CC(=O)Nc2ccc(OC)cc2)cc1 (stereo not drawn)	-0.7	7
CCN(CC)C(=O)c1nc(-c2ccc(Cl)cc2)n2c1CCCCC2	/	-29
CCNC(=O)C1CCN(c2nn3cc(-c4ccc(F)cc4)nc3s2)CC1	-1.8	-4
COCCOc1ccc(C(F)(F)F)cc1Nc1nc2ccccc2o1	/	5
O=C(OCc1cc(=O)oc2cc3c(cc12)CCC3)c1ccc(Br)o1	/	-3
C=CCn1c(CNC(=O)c2ccccc2)nc2ccccc21	-0.6	15
CCOC(=O)N1CCN(C(=O)COc2cccc3c2CCN(CC)C3=O)CC1	/	8
Nc1ccnn1Cc1ccco1	-1.4	13
CN(CCO)C12CC3CC(CC(C3)C1)C2	0.9	3
COc1cccc2cc(C(=O)Nc3ccccc3-c3nnn(CC(=O)NC(C)(C)C)n3)c(=O)oc12	-2.6	9
O=C(NCCCO)c1ccc2[nH]c3ccccc3c2c1	-3.0	-9
COc1ccc(Br)cc1CNC(=O)c1ccc(N2C(=O)Cn3c(cc4sccc43)C2=O)cc1	/	-6
COc1ccc(-c2nnc(NC(=O)c3cc(C)cc(C)c3)s2)c(OC)c1	/	22
CN1C(=O)/C(=C\c2ccncc2)SC1=S	3.4	6

Reformatted: entries from further up.
compound | MgrA DNA FP | S aureus helic
N#CC1=C2SCN(c3ccccc3)CN2C(=O)CC1c1ccccc1 (stereo not drawn) | / | -2
CCc1cccc(CC)c1NC(=O)Cn1c(C(=O)OC(C)C)cc2c1ccn2C | -0.5 | 10
Cc1ccc2nc(CC(=O)O)[nH]c2c1 | 1.5 | -10

Carrying on.
SMILES	MgrA DNA FP	S aureus helic
COC(=O)C1C(=O)NC(SCC(=O)NCc2ccccc2)=C(C#N)C1c1ccccc1F (stereo not drawn)	3.5	11
Cc1ccc(SC(C)C(=O)Nc2ccccc2C#N)cc1C (stereo not drawn)	/	1
CCC12CC3CC(NC(C)=O)(C1)CC(C(=O)O)(C3)C2 (stereo not drawn)	-4.0	/
C=CCNC(=O)C1CC2CCCC(C1)C2=O (stereo not drawn)	0.6	-15
CCCNS(=O)(=O)c1ccc2c(c1)oc(=O)n2C	1.6	12
O=C(Nc1nnc(-c2ccccc2)o1)c1cc(Cl)sc1Cl	/	-10
O=C(N/N=C/C=C/c1ccco1)c1cccs1	8.6	-24
COC(=O)c1c(NC(=O)C2CC2)sc2c1CCCC2	/	12
O=C(/C=C/c1ccco1)N1CCN(Cc2nc3sc4c(c3c(=O)[nH]2)CCCC4)CC1	/	6
CCOC(=O)c1cc(-c2ccnn2S(=O)(=O)c2ccc(C)cc2)on1	5.6	/
Cc1cc(O)c2/c(=N\N)c(-c3csc(C)n3)coc2c1	/	-10
O=C(O)c1cccc(I)c1	/	-13
COc1ccc(C2CC(c3ccc(Cl)c(Cl)c3)Nc3nc(N)nn32)cc1OC (stereo not drawn)	/	5
Clc1ccc(Nc2c3c(nc4ncnn24)CCC3)cc1	-2.5	/
C=CCn1c(CSc2nc(N)cc(N)n2)nnc1SCC(=O)NC1CCCCC1	/	-19
Cc1nc(S(=O)(=O)NCc2ccc3c(c2)CCO3)cn1C	-2.5	/
COc1ccc2c3c(cccc13)OCC2=O	3.4	-1
CCOC(=O)c1c2c(n3ccccc13)C(=O)c1ccccc1C2=O	28	-9
Cc1ccc(-n2c(C)c(C)c3c2N=CN2CCS(=O)(=O)N=C32)cc1	/	21
CC1Cc2ccccc2N1C(=O)C1CC(=O)N(c2ccccc2)C1 (stereo not drawn)	4.8	8
CCCCc1nnc(NC(=O)CCCN2C(=O)/C(=C/c3ccccc3)SC2=S)s1	/	18
COc1cccc(-c2nnc(-c3ccc(NC(=O)C(F)(F)F)cc3)o2)c1	-4.0	3
Cc1oc(-c2cccs2)nc1CS(=O)CC(=O)NC1CCCC1 (stereo not drawn)	/	-5
COc1cccc(NC(=O)c2cn(C)c(=O)c3cc(OC)c(OC)cc23)c1	/	23
N#C/C(=C/C1=Cc2ccccc2OC1)S(=O)(=O)c1ccccc1	/	-41
More entries follow:
SMILES	MgrA DNA FP	S aureus helic
CC(Sc1nnc(-c2cccc(Cl)c2)n1N)C(=O)NC1CCCCC1 (stereo not drawn)	/	6
COc1ccc2ccccc2c1/C=C1/N=C(c2ccc(Cl)c([N+](=O)[O-])c2)OC1=O	-4.2	/
O=C(Cn1nnc(-c2ccccc2)n1)NC(=O)NCc1ccccc1	/	-1
N#CCSc1ccc(-c2cccnc2)nn1	/	8
O=C(c1cccs1)c1coc2ccc(Cl)cc2c1=O	-0.5	-22
COc1ccc2c(c1)c1nc(SCC(C)C)n(CCO)c(=O)c1n2C	/	9
COC(=O)c1cn(C(=O)c2ccccc2)c2ccccc12	1.4	15
Cc1cc2cc(CNC(=O)c3ccc(S(=O)(=O)N4CCCC4)cc3)ccc2n1C	/	8
O=C(NCCCN1CCOCC1)C1CC(c2ccccc2O)=NO1 (stereo not drawn)	-6.7	12
N#Cc1c(SCC(=O)N2CCOCC2)nsc1SCC(=O)N1CCOCC1	/	-25
N#Cc1nc2c(S(=O)(=O)c3ccc(Cl)cc3)c(N)n(Nc3cccc(Cl)c3)c2nc1C#N	/	-7
COc1cc(/C=c2/sc3nc4ccccc4n3c2=O)ccc1O	/	-120
Cc1ccc(-c2csc3ncn(-n4c(C)ccc4C)c(=O)c23)cc1	/	-10
CCOC(=O)N1CCC(NC(=O)CS(=O)(=O)Cc2nc(-c3cccc(OC)c3)oc2C)CC1	/	25
N#CC1=C(SCC(=O)Nc2ccc(Br)cc2)NC(=O)CC1c1ccc(Cl)cc1 (stereo not drawn)	-2.0	/
O=c1c2ccccc2cnn1Cc1ccccc1	0.2	/
CCn1nc(C)c(NC(=O)c2cc(Br)ccc2Cl)c1C	1.8	5
c1ccc2c(c1)ncn2CCC1CCCCC1	/	29
O=C(c1ccc(Br)cc1)N1Cc2ccccc2NC1=S	-2.8	-2
COc1cc(C(=O)N2N=C(c3ccccc3)CC2c2ccccc2)cc(OC)c1OC (stereo not drawn)	-0.2	/
Cc1nc2ccc(NC(=O)N3CCSCC3)cc2s1	3.5	11
COc1cc(-c2n[nH]c(=S)n2-c2cccc(C(F)(F)F)c2)cc(OC)c1OC	0.4	/
CCN1CCN(/C=N/c2nc3c(s2)CCCC3)CC1	/	16
CS(=O)(=NC(=O)c1cc(C(F)(F)F)cc(C(F)(F)F)c1)c1ccc(Cl)cc1 (stereo not drawn)	4.6	/
CC(C)Cn1c(SC(C)C(N)=O)nc2ccccc21 (stereo not drawn)	/	7
(cont.)
SMILES	MgrA DNA FP	S aureus helic
CC1=C(CCN2CCN(C/C=C/c3ccccc3)CC2)C(C)(C)CCC1	-4.5	11
CCOC(=O)CC(=O)Nc1ccc(C(=O)OCC)cc1	/	4
CC1CCN(C(=O)c2ccc(NC(=O)C3CCCO3)cc2)CC1 (stereo not drawn)	/	7
O=C1Nc2cc(Cl)ccc2SC2CCCCC2O1 (stereo not drawn)	/	30
O=C(O)c1ccc(-c2ccc(O)c(F)c2)cc1	/	5
CC(=O)c1cc(Cl)cc(Cl)c1OC(=O)c1cccc(C(F)(F)F)c1	-0.7	/
Cc1ccc(NC(=O)/C=C2\SC(=O)NC2=O)cc1	/	3
Cc1cc(C)cc(-n2cc3c(=O)n(C)c(=O)n(C)c3c2)c1	1.1	15
CC1=C(C(=O)OCC2CCCO2)C(c2cc3c(cc2Br)OCO3)NC(=O)N1 (stereo not drawn)	2.5	/
CS/C(=N\S(=O)(=O)c1ccc(C)cc1)N1CCN(C(=O)c2cccs2)CC1	/	-13
O=C(Cn1ccc2cc(S(=O)(=O)N3CCCCC3)ccc21)N1CCCCC1	/	-14
C=CCn1c(C)cc(C(=O)CSc2nnc3n2CCCCC3)c1C	/	20
CC12CCC(=O)N1C(C(=O)OCC(=O)Nc1sccc1C#N)CS2 (stereo not drawn)	/	-24
CCOC(=O)CSc1nc(N)c(C#N)c(-c2ccc(OCC)cc2)c1C#N	0.6	/
COC(=O)c1cc(C)sc1NC(=O)C1CC(=O)NN1Cc1ccccc1 (stereo not drawn)	-2.1	3
OCCNc1ncnc2c1cnn2-c1ccccc1	/	-3
Cn1c(=O)n(CCc2ccccc2)c2ccccc21	3.2	2
CNC(=S)NN=C1CCCC1	2.2	/
COc1ccc(CCn2c(N)c(-c3nc4ccccc4[nH]3)c3nc(C#N)c(C#N)nc32)cc1OC	/	-1
NC(=O)C1CCN(C(=O)C2C3C=CC(O3)C2C(=O)O)CC1 (stereo not drawn)	0.7	9
COC(=O)c1cc2c(s1)-c1cc(Cl)ccc1S(=O)(=O)C2	0.9	/
Cn1nc(-c2ccc(Cl)cc2)cc1NC(=O)CSCC(=O)O	-6.7	/
COc1cc(/C=C(\NC(C)=O)C(=O)O)cc(OC)c1OC	-3.3	/
COc1ccc(N2CCN(Cc3cn4c(C)cc(C)nc4n3)CC2)cc1	/	-12
COCCN1C(=O)CS/C1=C(/C#N)C(=O)NCc1ccco1	/	2

Structural class: the entries above containing a furan ring, fused or not.
SMILES	MgrA DNA FP	S aureus helic
CCN(c1ncnc2c1oc1ccccc12)C1CCCCC1	/	-5
O=C(OCc1cc(=O)oc2cc3c(cc12)CCC3)c1ccc(Br)o1	/	-3
Nc1ccnn1Cc1ccco1	-1.4	13
O=C(N/N=C/C=C/c1ccco1)c1cccs1	8.6	-24
O=C(/C=C/c1ccco1)N1CCN(Cc2nc3sc4c(c3c(=O)[nH]2)CCCC4)CC1	/	6
COCCN1C(=O)CS/C1=C(/C#N)C(=O)NCc1ccco1	/	2

New compounds follow.
SMILES	MgrA DNA FP	S aureus helic
CCOc1ccc(OC(C)C(=O)NN)cc1 (stereo not drawn)	/	-3
CCOC(=O)c1noc(N)c1-c1ccccc1	/	11
CCN(CC)CCCNC1CCCC1	/	0
CCc1cccc(NC(=O)COC(=O)Cc2cn3ccsc3n2)c1	/	-13
O=c1cc(C(F)(F)F)[nH]c2c(Cl)cccc12	1.3	/
CCOC(=O)c1ccc(NC(=O)c2cc3cc4c5c(c3oc2=N)CCCN5CCC4)cc1	/	-101
COc1ccc(CCNc2ncnc3sccc23)cc1	/	10
